NPYLR7 ag – agonists of mosquito NPYLR7 receptor, primary screen, cell-based, Aedes aegypti, calcium fluorescence, mosquito biting behavior; 0.15% of 270,000 active; HEK293T NPYLR7/Galpha15, GCaMP6s calcium fluorescence; Aedes aegypti neuropeptide Y-like receptor 7 (NPYLR7); AID 1259423, 2018; activation, % at 10 µM; in the data active = activation above about 40%;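 also: 0% = vehicle and 100% = reference agonist at the receptor; some compounds past the cut are filed as inactive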
NPYLR7 ag max-min – second read-out of NPYLR7 ag, no call of its own (marks repeat the call); activation, %; measured here: Max-Min RFU normalised activation; some inactives read as strong as hits;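 span of the calcium signal over five minutes; 0% = vehicle and 100% = native peptide agonist; compound fluorescence can raise it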
* = called active by the depositor. An excerpt; rates above refer to the full screens.

SMILES	NPYLR7 ag	NPYLR7 ag max-min
Cc1cc(OCC(=O)Nc2ccccc2F)nc(N2CCC(C)CC2)n1	14.1	7.0
COc1ccc(-c2c[nH]c(=S)n2-c2ccc(C)cc2)cc1	-9.9	-14.2
CCC1=NOC(c2nc3scc(C(C)C)c3c(=O)[nH]2)C1 (stereo not given)	-20.9	-21.8
Cc1ccc2oc3c(c(=O)c2c1)C(c1ccc(C(C)(C)C)cc1)N(c1nccs1)C3=O (stereo not given)	5.5	5.7
Cc1ccc2[nH]c(CCCNS(=O)(=O)NCc3ccccc3)nc2c1C	3.9	1.7
CCC(C)NC(=O)c1cnc2ccc(C)cn2c1=O (stereo not given)	4.1	3.2
CC(O)Cc1c(C(=O)O)[nH][nH]c1=O (stereo not given)	0.9	4.6
Cc1cc(N2CCN(c3ccccc3O)CC2)nc(N2CCOCC2)n1	5.0	16.5
CC(C)CCN=C(NC(=O)c1cccs1)OCC(C)C	-6.3	-3.3
Nc1ncnc(NC2CCS(=O)(=O)C2)c1[N+](=O)[O-] (stereo not given)	-6.5	-7.7
COC(=O)c1nnn(-c2ccc(F)c(Cl)c2)c1C(=O)OC	9.1	12.0
CC(=O)Nc1ccc(Cl)c(C(=O)N(C)Cc2ncc(C)[nH]2)c1	5.9	5.2
CCCn1cc(C2CCN(S(=O)(=O)c3c(C)cc(C)cc3C)CC2)c2ccccc21	2.9	1.8
O=c1[nH]c(CN2CCOCC2)nc2c1C1(CCCC1)Cc1ccccc1-2	31.6	26.6
O=C(CNC1CC1)N1CCc2sccc2C1c1ccc(Cl)cc1Cl (stereo not given)	-8.0	-16.1
Cc1ccc(OCc2nnc(NC(=O)C(C)(C)C)s2)cc1	-0.8	-3.7
CCCCC(O)CN(Cc1c(-c2ccccc2)nn(C)c1Oc1cccc(F)c1)C(C)C (stereo not given)	6.3	8.1
COc1ccc(C(C)=O)cc1Cn1c(C)c(C(=O)NCc2cccc(C)c2)sc1=O	8.9	4.1
COCCc1noc(CNC2CCSC2)n1 (stereo not given)	12.3	-0.7
O=C(c1cccc(F)c1)N1CCC2(CC1)OCc1cc(-c3ccccc3)ccc1O2	-9.7	-21.5
Cc1cccc2c(C(=O)NCc3ccccc3)cc(-c3ccccc3)nc12	-7.0	-14.5
O=C1C2=C(C(c3ccccc3)=NCCN2)C(c2ccccc2F)N1c1ccccc1 (stereo not given)	6.0	7.4
CCc1c(C)cc(C(=O)NCc2nc3ccc(OC)cc3[nH]2)c(=O)n1C	-1.9	-8.8
Cn1c(=O)c2c(nc(N3CCCCC3)n2CCSc2nc3ccccc3o2)n(C)c1=O	0.0	37.6
COc1cccc(NC(=O)Nc2ccc(-n3nc(OCC(C)C)nc3-c3ccc(C(F)(F)F)cc3)cc2)c1	1.6	12.4

5 structures from above, sorted by molecular weight, low to high.
SMILES	NPYLR7 ag	NPYLR7 ag max-min
Nc1ncnc(NC2CCS(=O)(=O)C2)c1[N+](=O)[O-] (stereo not given)	-6.5	-7.7
Cc1ccc(OCc2nnc(NC(=O)C(C)(C)C)s2)cc1	-0.8	-3.7
Cc1cc(N2CCN(c3ccccc3O)CC2)nc(N2CCOCC2)n1	5.0	16.5
Cc1ccc2[nH]c(CCCNS(=O)(=O)NCc3ccccc3)nc2c1C	3.9	1.7
O=C1C2=C(C(c3ccccc3)=NCCN2)C(c2ccccc2F)N1c1ccccc1 (stereo not given)	6.0	7.4

More records follow:
SMILES	NPYLR7 ag	NPYLR7 ag max-min
C#CCN1C(=O)[C@]2(C)[C@H](c3ccccc31)[C@@H](C(=O)NC)CN2C(=O)Cc1ccc(OC)cc1	2.7	10.1
O=C(NCCCCc1ccccc1)C1CC=CCC1C(=O)N1CCN(c2ccccn2)CC1 (stereo not given)	-5.7	-9.5
C#CCOc1c(I)cc(/C=C2\SC(N)=NC2=O)cc1OC	-8.5	-14.2
Cc1cc(CN(C)C(C)c2cccnc2)ccc1F (stereo not given)	-3.0	-2.2
CC1C2=C(CC(C)(C)CC2=O)N=C2CC(C)(C)CC(=O)C21 (stereo not given)	-0.8	-1.1
Cc1ccccc1COc1cccc(/C=C2\C(=O)NN(c3ccccc3)C2=O)c1	9.4	9.8
NC(=O)c1c(NC(=O)COC(=O)CN2C(=O)CNC2=O)sc2c1CCC2	0.3	-1.2
O=C(c1cccs1)N1CCN(Cc2nc(Cc3ccccc3F)no2)CC1	6.0	1.0
N#Cc1ccc(CN2CCN(CCc3cccs3)CC2)c(F)c1	9.3	6.2
O=c1nc(/C=C/c2ccccc2)oc2ccccc12	4.8	3.9
COC(=O)Nc1cc(C(C)(C)C)nn1-c1cc(Cl)ccc1Cl	4.5	14.4
O=C(Nc1cccc2ccccc12)c1cn(-c2ccccc2)nc1-c1cccnc1	-10.9	-12.6
COc1ccccc1-c1cc(C(=O)NCc2ccc3c(c2)OCO3)nc2cc(-c3ccccc3)nn12	6.5	16.2
O=C1C(C(c2cccs2)N2CCN(CCO)CC2)Sc2ncnn21 (stereo not given)	2.5	0.8
Cc1c(C(=O)N(C)Cc2ccc(F)cc2)sc(=O)n1CC(=O)c1ccccc1F	-0.2	-2.9
CC(c1nc2ccccc2c(=O)n1Cc1ccccc1)N(C(=O)Nc1ccc(Cl)c(Cl)c1)c1cccc(O)c1 (stereo not given)	0.8	12.2
CSC1CCCCC1(O)CSc1nc2ccccc2s1 (stereo not given)	-2.7	-3.8
O=C(c1ccc(Br)o1)N1CCC2(CCCc3ccccc32)C1 (stereo not given)	6.6	9.3
COc1ccc2nc(NC(=O)CCCCl)sc2c1	-5.1	-6.5
CC(C)Cn1c(SCCC(N)=O)nnc1-c1ccc(Cl)cc1Cl	4.1	12.6
COc1ccc(OC)c(C2c3c([nH]c(=O)[nH]c3=O)N=C3COC(=O)C32)c1 (stereo not given)	2.5	2.5
COc1ccc(CC2CN(C(=O)CCc3cn[nH]c3)CCO2)cc1 (stereo not given)	1.6	-0.9
O=C1Cc2c([nH]c3ccc(Br)cc23)-c2ccccc2N1	-1.7	-3.6
Cc1ccc2oc(CN(C(=O)c3ccco3)C3CCCCC3)nc2c1	-3.1	3.5
COc1ccc(/C(C)=N\N=C2/NC(=O)C(CC(=O)Nc3cc(Cl)ccc3Cl)S2)cc1 (stereo not given)	5.4	3.8

More results follow.
SMILES	NPYLR7 ag	NPYLR7 ag max-min
COc1ccc(-c2c(C)nn3c(NCc4ccccc4)cc(C)nc23)cc1OC	2.8	1.3
CCOc1cccc2cc(-c3csc(Nc4ccccc4)n3)c(=O)oc12	-1.6	-7.1
COc1cc(C(=O)N(CC#N)CC#N)c([N+](=O)[O-])cc1OC	0.4	-1.2
CCOc1ccc(-n2c(SC(C)C(=O)OC)nc3c([nH]c4ccccc43)c2=O)cc1 (stereo not given)	-0.1	32.2
Cc1noc(C)c1CC(=O)NC(c1ccc(Cl)cc1)C1CC1 (stereo not given)	-16.5	-22.8
O=C(COc1ccccc1)N1CCN(c2ccc(F)cc2)CC1	4.6	3.7
O=C(N[C@@H]1CCCCC1NC(=O)C1CCCN(C(=O)c2ccccc2Cl)C1)c1ccc(F)cc1 (stereo not given in full)	-4.6	1.6
CCC(C)N(Cc1ccc(C(=O)O)cc1)C1CCCC1 (stereo not given)	2.3	1.2
O=S1(=O)N=C(Nc2cccc3ccccc23)c2ccccc21	-9.4	-17.3
COC(=O)c1ccc(NCC(=O)N2C(C)CCCC2C)cc1 (stereo not given)	2.2	0.4
CCSC1CCCCN(CC(=O)NCC(C)(C)N2CCOCC2)C1 (stereo not given)	9.9	8.7
O=C(NCCc1ccc2c(c1)OCCO2)c1ccc(-n2ccnc2)nc1	5.6	3.5
Cc1nc(C2NC(=O)CN2Cc2ccc(-c3ccccc3)cc2)cs1 (stereo not given)	5.4	4.4
Cc1nnc(SCC(=O)N2CCN(C(=O)c3ccc([N+](=O)[O-])cc3)C(C)C2)n1-c1cccc(Cl)c1 (stereo not given)	24.3	29.0
CCOCCn1c(=S)[nH]c2c1c(=O)[nH]c(=O)n2C	16.8	10.3
CCOP(=O)(O)CCl	1.3	0.6
COc1ccnc(CN2CCC3(CC2)c2ccccc2CC3O)c1OC (stereo not given)	2.7	1.1
O=C(NNC(=O)C12CC3CC(CC(C3)C1)C2)c1sccc1-n1cccc1	5.3	0.3
CC(C)Oc1ccc(CN2CCCC(Nc3ccc(F)cc3)C2)cc1CO (stereo not given)	6.4	2.4
C=CCN(CC(=O)N(C)c1ccccc1)S(=O)(=O)c1ccccc1F	7.0	5.9
Brc1ccccc1N=c1scc(-c2ccccc2)n1CCOc1ccccc1	29.4	8.0
COc1ccccc1-c1n[nH]c(=S)n1-c1ccc(Cl)cc1	-5.9	-10.5
COCCN(CCC(=O)NCc1ccccc1)c1nc(C2CC2)nc2ccccc12	-6.1	-0.5
Cc1ccc(N2CCC(n3cc(C(=O)NCC(C)C)nn3)CC2)nn1	5.9	-7.7
C=CCN(Cc1csc(COc2ccc(OC)cc2)n1)C(=O)C1CC1	14.9	20.1

Another view of part of the listing above:
Compound: COc1cc(C(=O)N(CC#N)CC#N)c([N+](=O)[O-])cc1OC
  NPYLR7 ag: 0.4 | NPYLR7 ag max-min: -1.2
Compound: CCOc1ccc(-n2c(SC(C)C(=O)OC)nc3c([nH]c4ccccc43)c2=O)cc1 (stereo not given)
  NPYLR7 ag: -0.1 | NPYLR7 ag max-min: 32.2
Compound: Cc1noc(C)c1CC(=O)NC(c1ccc(Cl)cc1)C1CC1 (stereo not given)
  NPYLR7 ag: -16.5 | NPYLR7 ag max-min: -22.8

(more compounds)
SMILES	NPYLR7 ag	NPYLR7 ag max-min
COc1ccc(-c2nnc(NC(=O)C(NC(=O)COc3ccc(Cl)cc3)C(C)C)s2)cc1 (stereo not given)	5.5	10.2
O=C(O)c1cccc(CC2CCN(C(=O)CCc3cccnc3)CC2)c1	4.6	2.6
CCc1cccc2c(C(CC(=O)NCCc3ccccc3)c3ccc(Cl)c(Cl)c3)c[nH]c12 (stereo not given)	4.9	14.0
Cc1cnccc1N1CCCN(C2CCC3(CCNCC3)CC2)CC1	13.4	8.7
CCc1cc(-c2n[nH]c(C)c2-c2nc3ccccc3s2)c(O)c(CN2CCN(C)CC2)c1O	6.3	4.1
Cc1[nH]cnc1CN(C)Cc1nc(-c2cccnc2)no1	4.0	3.2
Cc1cc(NC(=O)CNCc2csc(-c3cnccn3)n2)ccc1Cl	19.4	4.8
Cc1nnc(CNC(=O)C2CCCCN2Cc2ccc(F)cc2)n1C (stereo not given)	-0.5	-10.2
O=C(c1n[nH]c2c1CCCC2)N1CC[C@@H](c2ccc3c(c2)OCO3)[C@H](O)C1	2.5	1.2
CC(C)(C)CCNC(=O)N1CCN(c2nc3ccccc3s2)CC1	7.7	2.3
CN(C)S(=O)(=O)c1ccc(C(=O)OCc2ccc(Cl)c(Cl)c2)o1	13.9	5.9
Cc1cc(Cl)c2oc(C(=O)N3CCC(CCN4CCCC4=O)CC3)c(C)c2c1	2.2	-1.8
COc1cccc(-c2cnc(-c3ccc(CNC(=O)CSc4ccccc4)cc3)[nH]2)c1	-4.2	-8.1
CC1=C(C(=O)OCC2CCCO2)C(c2ccc([N+](=O)[O-])cc2)NC(=O)N1 (stereo not given)	-2.6	-4.0
C=CCOC(=O)C1=C(C)Nc2nc(SCC=C)[nH]c(=O)c2C1c1cccc(OC)c1 (stereo not given)	4.1	10.0
COc1cccc(CC(=O)N2CCC(N3CCC(C(=O)N4CCCC4)CC3)CC2)c1	6.0	4.4
Cc1ccccc1CN1CCCC(CNC(=O)C2(c3ccc(Cl)cc3)CC2)C1 (stereo not given)	-6.5	-8.7
O=[N+]([O-])c1ccc(C2=Nn3c(nnc3-c3ccccc3)SC2)cc1	-7.0	-16.7
CCCC(C)NC(=O)Cn1c(=CC(=O)C(C)(C)C)sc(=Cc2ccsc2)c1=O (stereo not given)	0.7	13.1
CCc1ccc(NC(=O)C(CC)Sc2ncc(S(=O)(=O)c3ccccc3)c(N)n2)cc1 (stereo not given)	9.4	10.9
COc1ccccc1-n1c(SCc2ccc(C(=O)NCc3cccc(C(F)(F)F)c3)cc2)nnc1-c1ccco1	15.2	10.4
CC(C)(C)NC(=O)COC(=O)c1sc2cc(Cl)ccc2c1Cl	-0.7	-1.8
COC1CCCCC1OC(=O)C1CCN(C(=O)C2CC2)CC1 (stereo not given)	1.2	1.8
O=C(COn1nnc2ccc(S(=O)(=O)N3CCOCC3)cc21)NC1CC1	6.4	1.6
COCc1[nH]n2c(=O)c(C)c(C)nc2c1-c1ccc(Cl)cc1	-15.6	-19.0

Additional entries:
SMILES	NPYLR7 ag	NPYLR7 ag max-min
CC1CN(c2cc(Oc3ccc(F)cc3F)ncn2)CCN1C(=O)Cc1ccc(F)cc1 (stereo not given)	-8.8	-1.4
Cc1cc(C)n2nc(SCCC(N)=O)nc2n1	-1.4	-3.6
Cc1cc(C(=O)N2CCC3(CC2)N[C@H](C(=O)N2CCc4ccccc42)CS3)c(C)o1	-2.5	-4.4
CC(Oc1ccc(Br)cc1)c1nn2c(=O)c3ccccc3nc2n1N (stereo not given)	2.1	2.2
CN(CC1CC1)c1ccc(C(F)(F)F)cc1C(=O)O	-3.5	-4.8
CCc1nc2n(n1)C(=O)C(C(c1cccc(C)c1)N1CCC(O)CC1)S2 (stereo not given)	0.0	-6.5
Cc1sc(NC(=O)C(C)(C)C)c(C(N)=O)c1C	-0.1	-3.1
CC1CCN(C(=O)CSc2nc(=O)n3cc(Cl)ccc3n2)CC1	9.5	7.4
CCN(C(=O)c1ccc(NC(=O)C2CCC2)cc1)C1CCS(=O)(=O)C1 (stereo not given)	5.7	5.2
CO[C@H]1CN(Cc2cn(-c3ccccc3)nc2-c2ccncc2)CC[C@H]1N	10.2	7.8
CCc1c(C)sc(NC(=O)c2c(-c3ccccc3Cl)noc2C)c1C(=O)OC(C)C	0.0	-2.3
COc1ccc(C(CNC(=O)COc2cc(Cl)ccc2Cl)N2CCOCC2)cc1 (stereo not given)	-2.5	15.6
CC1=NC2=C(C(=O)CCC2)C(c2ccc(F)c(F)c2)C1C(=O)OC1CCCCC1 (stereo not given)	-13.5	-15.9
COc1ccc(CC(=O)Nc2ccc3nc(N(C)C)ccc3c2)cc1F	-2.6	-2.3
